High-throughput results from PubChem BioAssay.
Measles inh – inhibitors of measles virus growth in infected cells; z-score (no concentration beside the values); actives 0.1% (n = 33,000); infected Vero cells, GFP fluorescence, 64 h; stronger effect = lower value; AID 745;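 active means z-score under -3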;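 further: score is relative to mean and SD of the compound wells of a plate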
* hit, by the source's call. Only part of the results is shown; count on the stated rates, not on these rows.

SMILES	Measles inh
Cc1ccnc(NS(=O)(=O)c2cc(C(C)(C)C)c(F)c(C(C)(C)C)c2)c1	0.41
CCOc1cc(OCC)cc(C(=O)Nc2cc3nn(-c4ccc(C)cc4)nc3cc2C)c1	-0.07
COc1ccc(CCNc2nc3ccccc3nc2NS(=O)(=O)c2ccc(C)cc2)cc1OC	-0.58
CCCOC(=O)C1=C(C)NC2=C(C(=O)CCC2)C1c1ccc(O)c(OC)c1 (configuration not stated)	1.2
COc1cc(Nc2nc(C)nc3sc(C)cc23)cc(OC)c1OC	-1.1
CCSc1nnc2c(n1)OC(c1ccc3ccccc3c1)Nc1ccccc1-2 (configuration not stated)	-0.64
COc1ccc(NS(=O)(=O)c2ccc3[nH]c(=O)c(=O)[nH]c3c2)cc1Cl	0.78
CC1=C(C(=O)Nc2cccc(Cl)c2)C(c2ccc([N+](=O)[O-])cc2)NC(=O)N1 (configuration not stated)	-1
O=C(O)c1ccc(NC(=O)c2ccccc2NC(=O)c2ccccc2Cl)cc1	0.9
S=c1[nH]sc(=S)[nH]1	0.22
O=C(c1noc2c1CCCC2)N1CCN(c2ccccc2)CC1	-0.35
COc1ccc(-n2cnc3cc(C(=O)NCC4CCCO4)ccc32)cc1 (configuration not stated)	-0.85
CCOC(=O)C1=C(C)NC(=O)NC1c1ccccc1OC (configuration not stated)	0.12
Cc1ccc(Cl)cc1N1CCN(S(=O)(=O)c2c(C)n[nH]c2C)CC1	-0.49
COc1cc(C2NC(C(=O)O)Cc3c2[nH]c2ccccc32)cc(OC)c1OC (configuration not stated)	1.1
COC(=O)C1=C(C)NC2=C(C(=O)CCC2)C1c1cccc([N+](=O)[O-])c1 (configuration not stated)	1.4
C=CCn1c(SCCC)nc2sc3c(c2c1=O)CCCCC3	0.91
Cc1ccccc1Oc1nnc(-c2cccs2)c2ccccc12	0.24
Cc1oc(C(C)(C)C)cc1C(=O)Nc1cccc2ccccc12	0.75
CCOc1ccc2nc(C)cc(Nc3ccc(OC)c(OC)c3)c2c1	-0.1
CCOC(=O)c1cccc(NC(=O)c2cc3c(=O)oc4ccccc4c3s2)c1	-0.23
CCOC(=O)Cc1cc(-c2ccccc2O)nc2ccc3ccccc3c12	-0.81
O=C(CNS(=O)(=O)c1cccs1)N1CCN(C2CCCCC2)CC1	1.6
CC1=C(C(N)=O)C(c2ccc(O)cc2)n2ncnc2N1 (configuration not stated)	-1
CC(=O)N1CCCc2cc(S(=O)(=O)Nc3ccccc3C)ccc21	0.66
Cc1cc(C)cc(NC(=O)CSc2nc3c(c(=O)n2-c2ccc(Cl)cc2)SCC3)c1	-0.63
Cc1ccc2oc(-c3cccc(NC(=O)c4cc([N+](=O)[O-])ccc4Br)c3C)nc2c1	0.91
CCC(Oc1ccccc1)C(=O)Nc1cccc2c1C(=O)c1ccccc1C2=O (configuration not stated)	2
Cn1c(=O)n(CCOc2ccc([N+](=O)[O-])cc2)c2ccccc21	0.97
Cc1ccc(C(=O)Nc2ccccc2)cc1S(=O)(=O)N1CCOCC1	-0.75
CC1CCc2c(sc3nc[nH]c(=S)c23)C1 (configuration not stated)	-0.6
COc1cccc2cc(-c3nnc(Nc4ccccc4F)s3)c(=O)oc12	0.43
Cc1ccc(N2CCN(c3ccc(C(=O)O)cc3[N+](=O)[O-])C(C)C2)cc1 (configuration not stated)	-0.48
CCc1ccccc1NC(=O)c1ccc(N2CC(C)CC(C)C2)c([N+](=O)[O-])c1 (configuration not stated)	-0.08
CCOC(=O)C1=C(c2ccccc2)NC(=S)NC1c1cc(Br)c(OC)cc1OC (configuration not stated)	0.06
Brc1cccc(C=CC=Nc2cccc(-c3nc4ccccc4o3)c2)c1	-1.5
CC(=O)OCCN1C(=O)c2cccc([N+](=O)[O-])c2C1=O	-0.01
NC1=NC2(CCCC2)N=C(Nc2ccc(F)cc2)N1	-0.17
COc1cccc(COc2ccc(C(F)(F)F)cc2[N+](=O)[O-])c1	-0.15
CCN1CCN(c2cc(Nc3ccc4c(c3)OCO4)c3c4c(onc24)-c2ccccc2C3=O)CC1	-0.23
O=C(CSc1nnc(COc2ccccc2)n1-c1ccccc1)c1cccs1	0.34
O=[N+]([O-])c1cc(-c2nnc(Nc3ccc(O)cc3)c3ccccc23)ccc1N1CCOCC1	-0.12
C=CCc1cc(C(=O)N2CCCC2)ccc1O	-0.66
CCOc1ccccc1C1NC(=S)NC(C)=C1C(=O)OCCSCC (configuration not stated)	-0.86
CCCCn1c(-c2ccc(S(=O)(=O)N3CCOCC3)cc2)csc1=Nc1ccccc1	-1.1
N#CCOc1ccc2cc(-c3nc4ccccc4s3)c(=O)oc2c1	5.8
Cc1ccccc1Nc1c(-c2ccccc2O)nc2ccc(Cl)cn12	-1.3
c1csc(-c2nnc(N3CCOCC3)c3ccccc23)c1	-0.35
O=C(NCc1cccnc1)c1cnn2c(C(F)(F)F)cc(-c3ccc(F)cc3)nc12	0.1
COc1ccc(C2C3C(=O)N(c4ccc([N+](=O)[O-])cc4)C(=O)C3ON2c2ccccc2)cc1 (configuration not stated)	0.5
O=C(c1cccc(N2C(=O)C3CC=CCC3C2=O)c1)N1CCCc2ccccc21 (configuration not stated)	-0.94
Cc1cc(C)c(Nc2ncnc3c2cnn3-c2ccc(Cl)cc2)c(C)c1	0.16
CC(=O)c1c(C)n(S(=O)(=O)c2ccccc2)c2ccc(NS(=O)(=O)c3ccccc3)cc12	-0.78
Cc1ccc(C(=O)COC(=O)c2cccc(NC(=O)c3ccc(Br)cc3)c2)cc1	-0.41
COc1ccc2nc3sc(C(=O)N4CCN(c5cc(C)ccc5C)CC4)cc3cc2c1	-0.97
O=c1[nH]c2ccc(S(=O)(=O)N3CCN(C4CCCCC4)CC3)cc2[nH]c1=O	-0.59
O=S(=O)(c1cccc2nsnc12)N1CCN(c2ccccc2Cl)CC1	2.1
FC(F)(F)c1cccc(-c2noc(-c3cccc(Br)c3)n2)c1	-2.4
CCOc1ccc(COC)cc1S(=O)(=O)NCCC12CC3CC(CC(C3)C1)C2	0.46
O=C(Nc1ccc(Cl)cc1C(F)(F)F)c1cc(S(=O)(=O)NCc2ccco2)ccc1F	-1.3
(cont.)
SMILES	Measles inh
NC(C(=O)O)C12CC3CC(CC(C3)C1)C2 (configuration not stated)	-0.08
COc1cc(C=Cc2ccc3cccc(OC)c3n2)cc2c1OCO2	-0.01
CC(=O)C1C(c2ccccc2)C(C#N)(C#N)C2C=Cc3ccccc3N12 (configuration not stated)	0.55
O=C(C1CC1)N1CCc2ccccc21	-1.6
O=c1c2ccccc2nc(SCc2ccccc2F)n1CCc1ccccc1	-0.29
O=C1CC(c2ccc(-c3ccccc3)cc2)c2cc(Br)c3ccccc3c2N1 (configuration not stated)	-1.4
CCCCN(CC)Cc1c(C)[nH]c2c(C)cc(C)cc2c1=O	-0.1
COc1ccc(-c2cc(C(=O)N3CCN(c4ccccc4F)CC3)c3ccccc3n2)c(OC)c1	-0.4
CCCOCCOC(=O)C1=C(C)NC2=C(C(=O)CC(C)(C)C2)C1c1ccccc1Cl (configuration not stated)	-0.57
Cn1cc(CC(=O)N2CCN(c3ccccc3)CC2)c2ccccc21	-0.36
CCOc1ccc(NC(=O)c2ccc(F)c(S(=O)(=O)N(CC)CC)c2)cc1	-0.53
CCCSc1nnc2c(n1)OC(c1ccccc1OCC(=O)O)Nc1ccc(Br)cc1-2 (configuration not stated)	-1.6
CCn1cc(-c2cc(C(F)(F)F)n3nc(C(=O)O)cc3n2)c(C)n1	-0.82
CC1=C(C(=O)OCCOc2ccccc2)C2(O)C(=O)c3ccccc3C2(O)N1 (configuration not stated)	-0.88
CCCCNC(=O)C1CCC(=O)N1C1CCCCC1 (configuration not stated)	0.93
Cc1ccc(OCC(=O)Nc2cc3nn(-c4ccccc4)nc3cc2C)cc1C	-0.27
O=C(Nc1cccc(O)c1)c1cc(-c2ccc3c(c2)OCO3)on1	-0.79
Cc1cccc(C)c1Nc1c(-c2ccc(F)cc2)nc2cnccn12	-0.9
CC(C)C(=O)OCCN1C(=O)c2cccc3c(N4CCOCC4)ccc(c23)C1=O	0.34
Cc1noc2c1C(c1ccccc1)CC(c1ccco1)=C2 (configuration not stated)	-0.94
COC(=O)c1ccccc1NS(=O)(=O)c1cccc2c1C(=O)c1ccccc1C2=O	0.37
CC(C)n1c(N2CCCCCC2)nc2c1c(=O)[nH]c(=O)n2C	-0.05
O=C(Nc1ccccc1F)c1cc2ccccc2oc1=O	-0.11
CCc1ccc(NC(=O)c2ccc(F)c(S(=O)(=O)NC(C)CC)c2)cc1 (configuration not stated)	1.3

An excerpt of these results, bar-delimited.
SMILES | Measles inh
Cn1cc(CC(=O)N2CCN(c3ccccc3)CC2)c2ccccc21 | -0.36
CCOc1ccc(NC(=O)c2ccc(F)c(S(=O)(=O)N(CC)CC)c2)cc1 | -0.53
CCCSc1nnc2c(n1)OC(c1ccccc1OCC(=O)O)Nc1ccc(Br)cc1-2 (configuration not stated) | -1.6
CCn1cc(-c2cc(C(F)(F)F)n3nc(C(=O)O)cc3n2)c(C)n1 | -0.82
CC1=C(C(=O)OCCOc2ccccc2)C2(O)C(=O)c3ccccc3C2(O)N1 (configuration not stated) | -0.88
CCCCNC(=O)C1CCC(=O)N1C1CCCCC1 (configuration not stated) | 0.93
Cc1ccc(OCC(=O)Nc2cc3nn(-c4ccccc4)nc3cc2C)cc1C | -0.27
O=C(Nc1cccc(O)c1)c1cc(-c2ccc3c(c2)OCO3)on1 | -0.79
Cc1cccc(C)c1Nc1c(-c2ccc(F)cc2)nc2cnccn12 | -0.9
CC(C)C(=O)OCCN1C(=O)c2cccc3c(N4CCOCC4)ccc(c23)C1=O | 0.34
Cc1noc2c1C(c1ccccc1)CC(c1ccco1)=C2 (configuration not stated) | -0.94
COC(=O)c1ccccc1NS(=O)(=O)c1cccc2c1C(=O)c1ccccc1C2=O | 0.37
CC(C)n1c(N2CCCCCC2)nc2c1c(=O)[nH]c(=O)n2C | -0.05
O=C(Nc1ccccc1F)c1cc2ccccc2oc1=O | -0.11
CCc1ccc(NC(=O)c2ccc(F)c(S(=O)(=O)NC(C)CC)c2)cc1 (configuration not stated) | 1.3

An excerpt of these results, as a markdown table.
| SMILES | Measles inh |
| --- | --- |
| CC(C)n1c(N2CCCCCC2)nc2c1c(=O)[nH]c(=O)n2C | -0.05 |
| O=C(Nc1ccccc1F)c1cc2ccccc2oc1=O | -0.11 |

(next part)
SMILES	Measles inh
Cc1ccc([N+](=O)[O-])cc1NC(=O)CC1Sc2ccccc2NC1=O (configuration not stated)	-1.2
Cc1ccc(NC(=O)c2ccc(Cn3nc(C)c(Br)c3C)o2)cc1F	-0.2
CC1(C)CC(CCN(Cc2ccccc2)C(=O)c2ccco2)(c2ccccc2)CCO1 (configuration not stated)	-0.11
O=C(Nc1ccccc1Cl)c1ccc(F)c(S(=O)(=O)NC2CCCCCC2)c1	-0.5
CC1=C(C(=O)OCc2ccccc2)C(C=Cc2ccccc2)N2C(=O)CCSC2=N1 (configuration not stated)	0.33
COc1cc(N2C(=O)c3ccc(F)cc3C2=O)cc(OC)c1OC	2.3
CCN(Cc1ccccc1)S(=O)(=O)c1ccc(F)c(C(=O)Nc2ccc(C)cc2)c1	1.2
COC(=O)c1ccc2c(c1)NC(=O)CS2	1.1
COc1ccc(C2CC(=O)C3=C(C2)NC(C)=C(C(=O)OC(C)C)C3c2ccc(F)cc2)cc1OC (configuration not stated)	-0.81
Clc1ccc(-c2nc3ccc(Cl)cn3c2Nc2ccc3c(c2)OCO3)cc1	0.57
CCSc1nc2ccccc2n1CCOc1ccccc1	1.6
Cc1[nH]nc(-n2cccn2)c1[N+](=O)[O-]	-1.1
Cc1nnc(NC(=O)CC(NC(=O)C(F)(F)F)c2ccccc2)s1 (configuration not stated)	-0.28
CC(=O)NC(=O)c1cc2c(ccc3ccccc32)oc1=Nc1ccc(C(C)=O)cc1	-0.31
COc1ccc(S(=O)(=O)CCC(=O)NCc2ccccc2)cc1	1.4
Cn1ccnc1SCc1ccc(Cl)cc1	-0.33
CCCSc1nnc2c(n1)OC(C=Cc1ccc([N+](=O)[O-])o1)Nc1ccccc1-2 (configuration not stated)	0
CCn1c2ccccc2c2cc(NC(=O)CCc3nc(-c4ccc(OC)cc4)no3)ccc21	0.03
CCOc1cccc(C2CC(c3cccc(OC)c3)=NC(c3ccc(C)cc3)N2)c1O (configuration not stated)	-0.06
Cc1ccc(Nc2cc(C)nc(-c3ccccc3)n2)cc1	-3.7*
COc1ccc(OC)c(CN2C(=O)c3ccccc3C2C(=O)NC2CCCC(C)C2C)c1 (configuration not stated)	-0.48
CCc1ccc(OCC(=O)N2c3ccccc3Sc3ccccc32)cc1	-0.34
O=C1CCCC2=C1C(c1cccc([N+](=O)[O-])c1)Nc1ccccc1N2 (configuration not stated)	0.67
Cc1cc(C)n(C(=O)c2cccc([N+](=O)[O-])c2)n1	1.6
Cc1sc2c(c1C)c(=O)n(CCc1ccccc1)c(=O)n2CC(N)=O	-0.33
Cc1ccc(NC(=O)C(C)Oc2ccc(-c3ccccc3)cc2)c([N+](=O)[O-])c1 (configuration not stated)	1.1
CCc1ccc(C2C=C(c3ccc(Br)cc3)Nc3nnnn32)cc1 (configuration not stated)	-0.14
CCc1ccc(NC(=O)c2ccc(F)c(S(=O)(=O)N(CC)c3cccc(C)c3)c2)cc1	-0.08
CCCOc1ccc(/C(O)=C2\C(=O)C(=O)N(Cc3cccnc3)C2c2ccc(F)cc2)c(C)c1 (configuration not stated)	-0.55
COc1ccc(Br)cc1CN1CCN(Cc2cc(OC)c(OC)c(OC)c2)CC1	-1.1
Cc1cc(C)c(C#N)c(Oc2ccc(Cl)cc2)n1	-0.08
CCCCNC(=O)C1c2ccccc2C(=O)N(CCOC)C1c1ccc(F)cc1 (configuration not stated)	-0.86
Cc1ccc(C(C)C)c(OCC(=O)Nc2ccc(S(=O)(=O)N3CCCC3)cc2)c1	-0.66
Cc1c(NC(=O)c2ccc(Br)cc2)cccc1-c1nc2ccccc2o1	2.6
COc1ccccc1-c1cc(C(F)(F)F)nc(NCc2cccnc2)n1	1.6
O=C(CSc1oc(-c2ccc(F)cc2)nc1S(=O)(=O)c1ccc(Cl)cc1)NC1CCCCC1	-0.33
CCOC(=O)c1cnc(SC)[nH]c1=O	-1.7
CCOC(=O)c1c(NC(=O)c2ccco2)sc(C(=O)Nc2ccccc2C)c1C	0.56
COc1ccccc1-c1nnc(NC(=O)c2ccc(S(=O)(=O)N3CCCc4ccccc43)cc2)o1	0.42
